Source: PubChem BioAssay
Menin MLL FP FL – menin-MLL binding inhibition, fluorescein peptide | Fluorescence polarization, fluorescein-MLL peptide displacement from menin | FP activity change, % at 61.4 µM | 290,000 tested, under 10 active; inconclusive = falling polarisation curve, or a change in total fluorescence; inactive = total fluorescence flat and polarisation flat or rising; no compound was filed as active; the % refers to the polarisation; negative = inhibition;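 also: % of control where 0% means no effect; inhibitors lower the polarisation; unlabelled MLL peptide was the positive control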
gsp antagonist – antagonists of gsp mutant (McCune-Albright syndrome) | hit rate 0.4% among 340,000 | AID 624288 | gsp-mutant cells, cAMP HTRF, 30 min; control for the full effect not named in the record | Potency, µM (doses to about 76.9 µM), without a hit: at the highest dose activity change, negative = inhibition, usual class: inhibitors; active = falling curve of any shape with a large fitted effect; inconclusive = falling curve, mostly with a smaller effect; inactive = flat or rising curve; cell line not stated here;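 also: intracellular cAMP measured with PDE inhibitor Ro 20-1724 present during compound exposure; potency is read from the fitted curve at half-maximal effect; % is scaled to controls: 0 for no effect and ±100 for the full control effect; nearly all actives have a fitted effect of over 65% in size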
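Cells, 2000/well, grown 16–24 h in DMEM 10% FBS with 0.5 mg/ml G418, then compounds plus […] (300 uM addition stock), 30 min at 37C. cAMP read by HTRF (cAMP-d2 and anti-cAMP antibody-K in lysis buffer) after 30 min RT.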
gsp agonist – activates gsp, the McCune-Albright syndrome mutation. hit rate 0.13% among 340,000. Potency, µM (titrated, usually from 76.9 µM), for inactives: at the highest dose activation (cAMP increase), usual class: activators. gsp mutant cells, cAMP HTRF, 30 min; control for the full effect not named in the record; active = well fitted activation curve with a large enough effect; inconclusive = small, poorly fitted or top-dose-only effect, or another doubt; inactive = no such curve, though single readings can be large or run the other way; cell line not stated here;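 also: phosphodiesterase inhibitor Ro 20-1724 added with compounds to block cAMP breakdown; potency is read from the fitted curve at half-maximal effect; nearly all actives have a fitted effect of over 60% in size; about a fifth of the inactives were tested at one dose only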
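Cells in DMEM/10% FBS with G418 were pretreated with compounds in DMSO plus […] (300 uM stock) for 30 min at 37C. cAMP was measured by HTRF (cAMP-d2 plus anti-cAMP antibody-K) after 30 min at room temperature.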
Sfp inh – blocks B. subtilis Sfp PPTase activity. Q9F4F7. Biochemical Sfp PPTase activity, qHTS. Potency, µM, inactives show max response, negative = inhibition, actives largely listed as inhibitors. hit rate 3.5% among 310,000. AID 1490; active = well fitted inhibition curve with a large enough effect; inconclusive = small, poorly fitted or top-dose-only effect, or another doubt; inactive = no such curve, though single readings can be large or run the other way;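 also: the enzyme is Sfp with the accession as filed and its product quenches rhodamine fluorescence; potency is read from the fitted curve at half-maximal effect; 0% = enzyme reaction without inhibitor and -100% = no enzyme wells; top concentration of the series not given in the record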
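After 15 min at room temperature with compound, 15 nM Sfp received 5 uM rhodamine-CoA plus 12.5 uM BHQ-2-ybbR (50 mM Hepes pH 7.6, 10 mM MgCl2). Rate came from the fluorescence difference over 30 min, ex 525/em 598 nm.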
TRPV1 PAM – potentiators of human vanilloid receptor 1 (TRPV1) | Q8NER1 | TRPV1-expressing cells, Fluo-8 calcium influx, capsaicin EC20 potentiation; host cell line not named in the record; control for the full effect not named in the record | potentiation, % at 8.33 µM | hit rate 0.02% among 320,000; active means potentiation above 80%; inconclusive means 30% to 80%; inactive means below 30%; also: 0% is about no effect
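Fluo-8 calcium influx in TRPV1-expressing cells, kinetic read (ex 480/em 520 nm). Compound added and read 3 min for agonist activity, followed by capsaicin at EC20 final and 2 min further read for enhancement.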
TRPML1 inh – blocks the human TRPML1 channel. AID 624415. Q9GZU1. TRPML1-inducible cells, Ca2+ dye fluorescence, FDSS; hits give low values; inhibition of EC80 agonist-evoked calcium signal. hit rate 0.02% among 390,000. activity change, negative = inhibition, % (no concentration beside the values); in the data active means activity change below about -50%; inconclusive means about -30% to -50%; inactive means above about -30%;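 also: stimulus is agonist 54-4 at its EC80 concentration; % is scaled to controls: 0 for no effect and ±100 for the full control effect; compound concentration not given in the record; the text of the record puts the active cut at -80%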
Target sequence (Q9GZU1 whole entry, looked up): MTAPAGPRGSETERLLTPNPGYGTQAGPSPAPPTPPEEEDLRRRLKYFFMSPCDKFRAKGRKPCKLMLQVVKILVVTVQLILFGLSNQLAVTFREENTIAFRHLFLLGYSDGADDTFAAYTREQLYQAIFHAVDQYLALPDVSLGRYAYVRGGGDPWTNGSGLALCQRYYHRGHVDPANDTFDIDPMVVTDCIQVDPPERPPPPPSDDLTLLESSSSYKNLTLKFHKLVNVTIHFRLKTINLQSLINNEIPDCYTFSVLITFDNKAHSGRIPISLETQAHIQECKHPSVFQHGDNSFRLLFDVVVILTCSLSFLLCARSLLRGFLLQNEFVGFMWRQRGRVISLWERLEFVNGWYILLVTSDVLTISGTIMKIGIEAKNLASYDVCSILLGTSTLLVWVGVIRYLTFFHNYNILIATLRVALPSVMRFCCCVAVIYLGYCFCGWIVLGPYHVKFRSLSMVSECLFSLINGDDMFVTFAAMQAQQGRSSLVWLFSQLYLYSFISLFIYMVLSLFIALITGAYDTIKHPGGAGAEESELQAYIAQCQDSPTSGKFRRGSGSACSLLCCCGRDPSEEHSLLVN
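Tet-induced TRPML1-DL cells loaded with Ca8 no-wash calcium dye were read kinetically on FDSS. Compound addition was followed by EC80 agonist 54-4 (4 uM final); inhibition was read over 110 s.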
ClpP mod – qHTS Assay for Activators of ClpP; purified B. subtilis ClpP, FRET peptide cleavage, 20 min; Potency, µM (doses to about 57.5 µM), for the others: at the highest dose activity change, negative = active; hit rate 1.9% among 340,000; active = well fitted falling curve with a large enough effect; inconclusive = small, poorly fitted or top-dose-only effect; inactive = no such curve, though single readings can be large or run the other way; also: potency is read from the fitted curve at half-maximal effect; the source files actives as falling curves though it sought activators and does not explain the sign; nearly all actives have a fitted effect of over 65% in size; many hits overshoot -100%
Target sequence (P80244 whole entry, looked up): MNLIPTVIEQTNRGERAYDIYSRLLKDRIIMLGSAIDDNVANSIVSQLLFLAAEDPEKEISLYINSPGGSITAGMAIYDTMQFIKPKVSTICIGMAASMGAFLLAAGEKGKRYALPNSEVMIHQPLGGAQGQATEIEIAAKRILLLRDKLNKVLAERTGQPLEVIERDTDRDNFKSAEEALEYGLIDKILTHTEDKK
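FRET quenching reversal measured ClpP activation: 10 microg/mL B. subtilis ClpP at pH 8 with the FRET-FV decapeptide, read at 430 nm after 320 nm excitation. The 20-min minus 0-min signal was scaled between DMSO/no-enzyme wells and ADEP (5.8 microM final).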
* = called active by the depositor; ? = inconclusive; . = not tested or not shown; & = joins results of further samples; [ ] = remark or other dose.

Results follow in this order: Menin MLL FP FL, gsp antagonist, gsp agonist, Sfp inh, TRPV1 PAM, TRPML1 inh, ClpP mod
O=C(N/N=C/c1cc2c(cc1Cl)OCO2)c1ccccn1
    ., 2.7%, -1.9%, ., ., 3.9, -6.5%
COC(=O)c1ccc(/C=N/N2CCN(Cc3ccccc3)CC2)cc1
    -1.4, 1.0%, 22.9%, ?, -14.8, 12.9, -0.6%
CCOC(=O)C1=C(O)CCn2c1nc1ccccc12
    1.2, 8.0%, -3.4%, 6.3%, ?, 5.2, -0.1%
O=[N+]([O-])c1ccc(Nc2ccccc2)c2nonc12
    ?, -20.6%, 17.1%, -8.0%, 2.6, -3.4, 0.0%
O=C(O)c1ccccc1-c1ccccc1C(=O)Nc1ccc(F)cc1
    -0.2, 5.2%, 14.3%[15.4 µM], 11.8%, 16.2, -9.8, -0.6%
COc1ccc(NC(=O)[C@@H]2CC=C[C@@H]3CCN(C4CCCCC4)C(=O)[C@@H]32)cc1
    ., -1.0%, ., ., ., 5.2, -0.1%&-1.7%
O=C(NCc1ccc(OC(F)(F)F)cc1)C1CC(c2c(Cl)cccc2Cl)=NO1 (stereo not given)
    -0.1, -2.9%, -25.4%, 1.8%, 8.0, 9.6, -2.3%
COC(=O)c1ccccc1NC(=O)CCS(=O)(=O)c1cc2c(cc1C)NC(=O)CO2
    -2.3, 5.1%, 18.5%, 24.4%, -1.8, -8.0, -4.2%
CCOc1ccc(C2C(C#N)=C(N)Oc3n[nH]c(C)c32)cc1OC(=O)C1CC1 (stereo not given)
    1.9, 6.7%, 7.0%, 2.2%, 2.4, 27.1, -1.2%
NC(=O)Cn1c(=O)n(C2CCCCC2)c(=O)c2c3c(sc21)CCCCC3
    0.3, -12.7%, 7.9%[15.4 µM], 50.1µM*, 25.9, ?, .
CC1CCC(NC(=O)CSc2nnnn2C)CC1 (stereo not given)
    ., 8.3%, 4.7%, ., -1.9, -1.8, -1.3%
CC(C)(C)NC(=O)CSc1nnc(NC(=O)c2ccccc2Cl)s1
    7.9, -1.3%, -1.7%, 29.6%, -4.7, -20.1, -2.0%
COc1ccccc1/C=C(/C(=O)OCC(=O)N(C)Cc1ccccc1)c1ccccc1
    6.6, -18.6%, 29.1%, -0.4%, -0.4, 35.1, -3.6%
CCS(=O)(=O)N1CCC(C(=O)Oc2ccccc2OC)CC1
    -0.4, 1.7%, -20.0%, 16.1%, 7.9, ., 1.3%
Cc1cc(C(=O)CSc2nnnn2C)c(C)n1CCc1ccc(F)cc1
    1.7, -6.1%, 25.1%, 12.3%, -12.0, 8.9, -0.6%
COc1ccc(-c2cc3nc(C)cc(NCCO)n3n2)cc1
    5.1, 2.2%, 2.8%, -5.4%, -14.5, -9.5, ?
COc1ccccc1C(=O)N(CCN(C)C)c1nc2cc(C)cc(C)c2s1
    0.3, -2.6%, -0.7%, 1.7%, -2.2, 5.4, -0.1%
NS(=O)(=O)c1ccc(Sc2nc3ccccc3s2)c([N+](=O)[O-])c1
    0.5, -6.4%, -5.5%[15.4 µM], -16.1%, -4.5, 10.6, .
O=C1NC(=O)/C(=C\c2cn(CC(=O)N3CCOCC3)c3ccccc23)S1
    1.4, ?, 9.5%, -0.5%, -2.4, -14.0, .
CCc1ccc(NC(=O)C2CCN(S(=O)(=O)c3c(C)[nH]c(=O)[nH]c3=O)CC2)cc1
    3.7, 2.7%, 5.0%, 28.1%, -3.2, -1.3, -0.7%
CCOc1cc(S(=O)(=O)N2CCN(CC)CC2)ccc1Cl
    -4.5, 13.8%, -15.0%, -5.8%, 10.0, -14.5, -1.8%
COc1ccc(CN2CCNC(=O)C2CC(=O)N(C)Cc2ccon2)c(F)c1 (stereo not given)
    ., 7.2%, -10.4%, 17.2%, -1.0, 11.7, -2.5%
O=c1[nH]c2ccc(Cl)cc2c(=O)n1Cc1ccco1
    0.6, -0.1%, 0.0%, 25.1%, -14.9, 34.7, -5.6%
O=C(COc1ccc(F)c(Cl)c1)Nc1ccc(N2CCOCC2)cc1
    ., 4.4%, -11.1%, ., ., 9.8, .
COc1ccc2nc(SCCOC(=O)Nc3ccc(Cl)cc3)nc(C)c2c1
    5.2, ?, -15.4%, 16.7%, -45.1, 34.1, 28.2µM*
CCCCC(=O)OCc1c(-c2cccc(OC)c2)ncc2ccccc12
    ., -13.1%, ., ., -10.5, 18.8, -5.3%
Cn1ccnc1C(=O)c1cc(SCC(=O)NC2CC2)nc2ccccc12
    4.7, 10.5%, 1.7%, 13.0%, 10.5, 18.4, -0.5%
CSc1nc(-c2ccccc2)nn1C(=O)c1ccco1
    2.6, 4.6%, ?, -12.1%, 28.1, 8.3, 3.1%
CC(CCN1C(Nc2ccccc2)=NC[C@@H]1Cc1ccccc1)c1ccccc1 (stereo not given in full)
    1.4, 8.9%, ., 8.5%, 17.5, 22.7, -0.6%
COc1ccc(NC(=O)c2cccc(S(=O)(=O)N3CCCC3)c2)cc1OC
    ., -1.4%, -3.2%[15.4 µM], ., -14.5, -5.9, 1.6%
O=C(CN1CCN(C/C=C/c2ccccc2)CC1)Nc1cc([N+](=O)[O-])ccc1Cl
    -1.1, -11.3%, -3.3%, 44.7µM*, -4.7, 13.0, 1.3%
Cc1ccc(C)c(-n2c3nc(=O)[nH]c(=O)c-3cc3cc([N+](=O)[O-])ccc32)c1
    ?, 9.0%, 15.9%, 50.1µM*, -0.4, -10.2, -12.3%
O=C(COC(=O)c1ccco1)Nc1ccc2[nH]c(=O)[nH]c2c1
    ., 15.3%, -34.2%[inhibitor], ., -0.5, 4.2, -1.5%
Cc1ccc(-c2nnn(CC(=O)N(c3cccc(F)c3)C(C(=O)NC3CCCC3)c3ccncc3)n2)o1 (stereo not given)
    4.7, 3.7%, 16.2%, 21.4%, 5.9, -19.2, .
C=CCOn1c(=O)c(-c2ccc(OC)cc2)[n+]([O-])c2ccccc21
    -0.2, 14.4%, 7.9%, -2.5%, 13.4, 0.4, -0.6%
CCN(Cc1ccncc1)C(=O)c1cc(COc2ccc(F)cc2Cl)on1
    ., -5.4%, -23.7%, 7.3%, -2.5, 13.9, -1.9%
Cc1ccc([N+](=O)[O-])c(OCCn2cnc3ccccc32)c1
    5.8, -2.0%, -1.3%[15.4 µM], 11.9%, -11.4, -13.7, 0.0%
COc1ccc(Cl)cc1NC(=O)CN1C(=O)NC(Cc2c[nH]c3ccccc23)C1=O (stereo not given)
    ., -3.8%, -18.2%, ., ., -1.4, -2.5%
Cc1ccc(C(=O)NCCN2CCOCC2)cc1C
    0.4, 8.3%, -55.3%[inhibitor], 11.9%, -2.7, -12.5, .
COc1ccc(NC(=O)CN2CCN(c3ccccc3Cl)CC2)cc1
    1.1, 8.7%, -4.3%, 16.0%, -8.0, 10.6, 1.4%
COc1ccccc1NC(=O)CSc1nnc(-c2ccncc2)o1
    3.8, 15.4%, -0.5%, 11.9%, 11.9, -17.7, 0.1%
CC(C)CCNc1nc(-c2ccco2)c2c(c1C#N)CCCC2
    4.4, 5.0%, -30.2%[inhibitor], ?, -2.1, 9.3, 14.1µM*
COc1ccc(C(=O)N/N=C\C(C)=C\c2ccccc2)cc1OC
    ., -16.4%, -16.7%[15.4 µM], ., ., 16.0, 29.3%
COc1ccc(CCNC(=O)c2cccc(S(=O)(=O)N3CCCCC3)c2)cc1
    3.3, -13.9%, -2.1%, 14.8%, -22.0, 1.6, .
O=c1c(=O)n2c(nn1Cc1ccc(F)cc1)sc1ccccc12
    0.0, 10.7%, 15.6%[15.4 µM], 16.8%, -5.4, 39.1, -1.8%
COc1ccc(-c2noc(C3CCCN(C(=O)Nc4ccccc4F)C3)n2)cc1 (stereo not given)
    -3.9, ., 4.3%[15.4 µM], 3.2%, -29.0, 8.6, .
Cc1cc(N2C(=O)NC(=O)CC2C)c(C)cc1C(C)C (stereo not given)
    3.4, 3.1%, -15.2%, 6.8%, -14.8, -8.0, ?
CNC(=O)c1ccc(NC(=O)c2ccc3c(=O)n4c(nc3c2)CCC4)cc1
    ., 6.8%, 27.3%, ., 6.8, 7.1, -2.3%
Cc1ccc2c(C)nc(Nc3nc(CSc4nc5ccccc5[nH]4)cc(=O)[nH]3)nc2c1
    -0.4, -14.3%, -24.3%, 12.2%, 7.6, 10.0, -1.4%
CCOC(=O)C1CCCN(C(=O)c2cccs2)C1 (stereo not given)
    3.4, -8.3%, 1.2%, 20.0%, 10.3, -11.7, -0.3%

(further entries)
Results follow in this order: Menin MLL FP FL, gsp antagonist, gsp agonist, Sfp inh, TRPV1 PAM, TRPML1 inh, ClpP mod
O=C(OCC(=O)N1CCOCC1)c1cccc(S(=O)(=O)Nc2ccc(F)cc2)c1
    ., -1.3%, 22.5%, ., 10.9, -5.1, 1.2%
CC(C)c1ccc(OCC(O)CNC(C)c2ccccc2)cc1 (stereo not given)
    -10.0, 4.7%, -2.4%[15.4 µM], -0.9%, 11.1, -6.0, 1.0%
O=C(COC(=O)/C=C/c1ccc(OC(F)F)cc1)Nc1cccc(S(=O)(=O)N2CCOCC2)c1
    ., -2.0%, -5.6%, ., ., 1.9, .
O=C(c1ccco1)N1CCN(CC(O)COc2ccc(Br)cc2)CC1 (stereo not given)
    -4.0, 5.8%, -8.9%[15.4 µM], 13.2%, -0.4, -1.6, .
COc1ccc2cc3c(N)nn(C(=O)c4ccc(Cl)c([N+](=O)[O-])c4)c3nc2c1
    3.6, 2.8%, -13.2%, -18.1%, 0.0, 3.7, 1.7%
CC(C)(C)OC(=O)CN1C(=O)NC2(CCCc3ccccc32)C1=O (stereo not given)
    0.0, -13.7%, 14.5%, 12.5%, -0.3, -4.0, .
CC(=O)Nc1ccc(-c2nnc(SCc3ccc(C)cc3)n2C)cc1
    1.6, -9.5%, 3.9%, -6.8%, -19.5, -13.4, -3.1%
COc1ccc2oc(=O)c(-c3ccccc3C(=O)N3CCOCC3)cc2c1
    2.8, -14.0%, ?, 14.4%, 22.9, 9.9, ?
COc1ccc(C(CCN2CCOCC2)c2c(OC)cc(OC)c3c(-c4ccccc4)cc(=O)oc23)cc1 (stereo not given)
    -0.2, -8.4%, ., ?, ., 5.6, ?
Cc1ccc(S(=O)(=O)N/N=C\c2ccccc2OCc2ccccc2)cc1
    -0.5, -1.1%, 0.5%, 14.6%, ., 0.4, -2.6%
